VACV mCherry inh: qHTS for Stage-Specific Inhibitors of Vaccinia Orthopoxvirus: mCherry Reporter Primary qHTS; Vaccinia virus mCherry reporter infection, fluorescence; about a quarter of the inactives have no number; Potency, µM (highest dose often 36.5 µM), for the others: at the top dose activity change, negative = inhibition, usual class: inhibitors; 310,000 compounds, 0.63% hits; AID 720579, 2013; active = well fitted inhibition curve with a large enough effect; inconclusive = small, poorly fitted or top-dose-only effect; inactive = no such curve, though single readings can be large or run the other way; tested in A549 cells; further: nearly all actives have a fitted effect of over 35% in size; inactives centre near -10
VACV Venus inh: qHTS for Stage-Specific Inhibitors of Vaccinia Orthopoxvirus: Venus Reporter Primary qHTS | Potency, µM (titrated, usually from 36.5 µM), without a hit: at the top dose activity change, negative = inhibition, hits mostly inhibitors | AID 720580, 2013 | 330,000 compounds, 0.46% hits | Vaccinia virus Venus reporter expression, fluorescence; active means well fitted inhibition curve with a large enough effect; inconclusive means small, poorly fitted or top-dose-only effect; inactive means no such curve, though single readings can be large or run the other way; tested in A549 cells; further: nearly all actives have a fitted effect of over 30% in size; inactives centre near -10
The depositor's hits bear a star; i = inactive; ? = inconclusive; nt = not tested or not shown; [ ] = another dose, or the depositor's remark. On the % scale 0 is the no-effect control and ±100 the full control effect; potency means the concentration at half of the fitted maximal effect.

Order of values – VACV mCherry inh	VACV Venus inh
CCCCN(Cc1ccccc1)C(=O)CCN1C(=O)C2C3C=CC(C3)C2C1=O (stereo not given)
  i	-21%
COC(=O)Cn1c(CCS(=O)(=O)c2ccc(C)c(C)c2)nc2ccccc21
  -14%	-9%
Cc1ccc(N(CC(=O)NCc2ccccc2)C(=O)CCC(=O)Nc2ccccn2)cc1C
  -10%	-15%
COc1ccc(N2C(=O)CC(N3CCN(S(=O)(=O)c4c(C)cc(C)cc4C)CC3)C2=O)cc1 (stereo not given)
  -19%	-9%
O=c1nc(N/N=C/c2ccco2)cn[nH]1
  i	-3%
CCn1c(-c2nn(C)cc2Cl)n[nH]c1=S
  -15%	-3%
NCCCNc1ccc(Br)cn1
  i	-13%
O=C(NCCS(=O)(=O)NCc1ccco1)c1ccccc1
  -1%	-8%
Cc1ccc2nc(Cl)c3cc(C(=O)NCCCN(C)Cc4ccccc4)sc3c2c1
  -20%	-22%
CN(C)CCCNC(NC(=O)c1cccs1)C(Cl)(Cl)Cl (stereo not given)
  i	-12%
Cc1ccc(S(=O)(=O)NN(Cc2ccccc2)Cc2ccccc2)cc1
  0%	2%
Cc1ccc(Cn2nc(C)c(NC(=O)CSc3nc4c(c(C(F)(F)F)n3)CCc3ccccc3-4)c2C)cc1
  -29%	-8%
CC(=O)Nc1ccc2nc(SCCOc3ccc(C)cc3)sc2c1
  -22%	-4%
CCN1C(=O)CC(c2ccccc2)CC1=O
  i	-9%
O=C(COC(=O)c1cc([N+](=O)[O-])ccc1NCc1ccccc1)NCc1ccccc1Cl
  i	-7%

Order of values – VACV mCherry inh	VACV Venus inh
O=C(NC1CC1)C1=C[C@H](c2c[nH]c3ccccc23)C[C@H](OCCCCO)O1
  -9%	4%
Cn1cccc1/C=C1\SC(=S)N(NC(=O)c2ccccc2O)C1=O
  21%	0%
COc1ccc(N2CCN(Cc3nc4c(c(=O)n(C)c(=O)n4C)n3Cc3ccccc3C)CC2)cc1
  i	-13%
COc1cccc(C(=O)O/N=C(\N)c2ccc(C)cc2)c1
  -1%	-1%
COc1cccc(CNC(=O)c2ccncc2)c1
  -9%	-5%
O=C(Cc1ccc(Cl)cc1)c1c[nH]c(C(=O)NCc2cccnc2)c1
  -12%	-12%
O=C1c2ccccc2C(Nc2ccc(Cl)cn2)N1c1ccccn1 (stereo not given)
  -13%	-25%
O=C(CSc1nc2ncc(Cl)cc2[nH]1)Nc1ccccc1-c1ccccc1
  i[7.34 µM]	-16%[7.34 µM]
COc1ccc(CN2CCCCC2C)cc1C (stereo not given)
  nt	0%
CCOC(=O)c1ccc(NC(=O)NCc2ccccc2)cc1
  -1%	-11%
CCc1ccc(NC(=O)C2CC(=O)N=C(N)S2)cc1 (stereo not given)
  i	-7%
CC(=NCCCO)c1c(O)[nH]c(=O)[nH]c1=O
  -10%	5%
Cc1ccc(S(=O)(=O)N[C@H](C(=O)NCC2CCC(C(=O)O)CC2)C(C)C)cc1 (stereo not given in full)
  -5%	-3%
COC(=O)C[C@@H]1C=C[C@@H](NC(=O)Nc2cccc(F)c2)[C@@H](CO)O1
  20%	1%
O=C(COc1ccc(Br)cc1)N1CCN(C2CCCC2)CC1
  nt	?

4 of the compounds above, as a markdown table.
| smiles | VACV mCherry inh | VACV Venus inh |
| --- | --- | --- |
| Cc1ccc2nc(Cl)c3cc(C(=O)NCCCN(C)Cc4ccccc4)sc3c2c1 | -20% | -22% |
| CN(C)CCCNC(NC(=O)c1cccs1)C(Cl)(Cl)Cl (stereo not given) | i | -12% |
| O=C(Cc1ccc(Cl)cc1)c1c[nH]c(C(=O)NCc2cccnc2)c1 | -12% | -12% |
| CCc1ccc(NC(=O)C2CC(=O)N=C(N)S2)cc1 (stereo not given) | i | -7% |

(listing goes on)
Order of values – VACV mCherry inh	VACV Venus inh
O=C1c2ccccc2OC2(C=Cc3ccccc3O2)N1Cc1ccccc1 (stereo not given)
  nt	-25%
CCOC(=O)c1c(C)n(C)c2ccc(OC(=O)c3ccc(N4C(=O)CCC4=O)cc3)cc12
  -22%	-21%
CCN(CC)c1ccc(N2C(=O)/C(=C/c3cccs3)SC2=S)cc1
  -14%	-11%
CCc1ccc2c(c1)C1(C(=O)N2)N2CCCC2C(C(=O)c2ccc3ccccc3c2)C12C(=O)Nc1ccccc12 (stereo not given)
  28µM*	13µM*
CC(C)(C)C(=O)Nc1ccccc1C(=O)OCC(=O)c1ccc2c(c1)OCCO2
  -21%	-17%
Cc1ccccc1-c1nnn(CC(=O)Nc2cccc(S(N)(=O)=O)c2)n1
  i	-11%
O=C(NCC1CCCCC1)c1cccc(S(=O)(=O)N2CCCC2)c1
  -1%	-11%
CC(C)c1ccc(NC(=O)COc2ccc(C3SCCS3)cc2)cc1
  -11%	-10%
COc1ccc(CCNC(=O)c2ccc3c(c2)NC(=O)C(N2CCOCC2)S3)cc1OC (stereo not given)
  nt	-15%
COc1cccc(C(=O)Nc2cc3c(cc2C(C)=O)OCCO3)c1
  -13%	-5%
CCC(CC)NC(=O)c1cc([N+](=O)[O-])ccc1N1CCOCC1
  -4%	1%
O=C(NCC1COc2ccccc2O1)C1CCN(S(=O)(=O)c2ccccc2)CC1 (stereo not given)
  -21%	-10%
CCC(=O)Nc1nc(CC(=O)Nc2ccccc2OC)cs1
  nt	-22%
O=C(COC(=O)c1ccc(O)cc1)Nc1cc(S(=O)(=O)N2CCCCCC2)ccc1Cl
  ?	-20%
CCCCc1ccc(/C=C2/C(=O)ON=C2c2ccccc2)s1
  i	-6%

Order of values – VACV mCherry inh	VACV Venus inh
CCOc1cc(CNC(=O)c2ccc3c(c2)N(C)C(=O)C2CCCCN32)ccc1OC (stereo not given)
  -5%	6%
Cc1ccccc1CNS(=O)(=O)c1ccccc1[N+](=O)[O-]
  -9%	-3%
O=C(O)COCC(=O)N1CCN(C2c3ccccc3-c3ccccc32)CC1
  -21%	-3%
COc1ccnc(NCc2cccnc2)c1C#N
  -12%	-6%
NC(=O)c1ccc(NC(=O)CNCc2ccccc2Cl)cc1
  -13%	-11%
CCOC(=O)c1cn(-c2ccc([N+](=O)[O-])cc2)c2cc(Cl)c([N+](=O)[O-])cc2c1=O
  -11%	-5%
O=C1NC[C@H](CCCCN2C[C@H](Cc3ccc(O)cc3)N(Cc3ccccc3)C(=O)C2=O)N(Cc2ccccc2)C1=O
  i	10%
Cc1cccc(NC(=O)c2cc([N+](=O)[O-])ccc2Cl)c1O
  -6%	-8%
COc1ccc(CN2C(=O)c3ccccc3C(/C=N/OCc3ccc(Cl)cc3)C2=O)cc1 (stereo not given)
  nt	-9%
COc1ccc(CCNC(=O)c2cn(C)c3ccc(S(=O)(=O)N4CCOCC4)cc3c2=O)cc1OC
  -22%	-20%
Nc1ncnc2c1ncn2[C@@H]1O[C@H](CNCc2c(OCc3ccccc3F)ccc3ccccc23)[C@@H](O)[C@H]1O
  -7%	-23%
COc1ccc2c(c1)cc1c(=O)n(CC(=O)NC3CCCCC3)nc(C)n12
  -3%	-3%
COc1ccc(C(=O)N2CCCCC2c2cc(C(=O)Nc3ccc(F)c(Cl)c3)no2)cc1 (stereo not given)
  -2%	?
COc1ccc(/C=C/C(=O)NCC(=O)N=Nc2c(O)[nH]c3ccc([N+](=O)[O-])cc23)cc1
  -2%	-7%
CCOc1ccc(NC(=O)C(CC(=O)O)Cc2ccccc2)cc1 (stereo not given)
  -10%	2%

Order of values – VACV mCherry inh	VACV Venus inh
CN(C)/C=N/c1cc(=O)[nH]c(=O)n1C
  i	-10%
c1ccc(-c2cc3c(ccc4nonc43)nn2)cc1
  -6%	6%
Cc1ccc(C(=O)NC2CC(C)(C)NC(C)(C)C2)cc1C
  -2%	-24%
O=C(CCN1C(=O)COc2ccccc21)NCCN1CCN(c2ccccc2F)CC1
  -2%	-17%
Cc1ccc(OCc2nnc(SCC(=O)Nc3nccs3)n2-c2ccccc2)cc1C
  nt	-9%
Cc1ccc2c(c1)C(=O)CC1(CCCC1)O2
  i	-3%
CSc1nc(N)nc(C(C)C)n1
  i	2%
C[C@H](NC(=O)N1C[C@H]2C[C@@H](C1)c1cccc(=O)n1C2)C(=O)Nc1ccc(F)c(F)c1
  -6%	-6%
O=[N+]([O-])c1cccnc1N1CCCNCC1
  -10%	-1%
CCCn1c2ccccc2c2cnn(CC(=O)NCCc3ccc(OCC)c(OCC)c3)c(=O)c21
  i	-5%
COc1ccccc1N1CCN(CCN2C(=O)C3CCCCN3C2=O)CC1 (stereo not given)
  ?	-10%
CC(C)c1ccc(Nc2cc(C(=O)NC3CCCCC3)c3ccccc3n2)cc1
  -10%[7.34 µM]	-2%[7.34 µM]
CCn1c(C(=O)Nc2cc(C)cc(C)c2)cc2sc(Cl)cc21
  -12%	-8%
CC(OC(=O)CCNS(=O)(=O)c1ccc(Cl)cc1)C(=O)N(C)Cc1ccccc1 (stereo not given)
  i	-16%
COc1ccc(C(=O)N/N=c2\oc3ccccc3cc2C(=O)NCc2ccccc2)cc1
  i	-11%

Order of values – VACV mCherry inh	VACV Venus inh
O=S(=O)(O)c1cc(Cl)cc(N=Nc2ccc(O)cc2O)c1O
  93%[activator]	97%[activator]
Brc1csc(CN2CCc3nc(Nc4ccccc4)ncc3C2)c1
  -20%	-26%
O=[N+]([O-])c1cccc(-c2c(-c3ccccc3)ncc3ccc(F)cc23)c1
  -5%	-3%
CCN(CC)S(=O)(=O)c1ccc(Cl)c(NC(=O)COC(=O)c2ccc(O)cc2)c1
  -12%	-4%
N#C/C(=C\c1ccc(O)c(O)c1)C(=O)Nc1cccc2ncccc12
  ?	-8%
Cc1[nH]nc2c1/C(=N\O)CC(C)(C)C2
  nt	-14%
Cc1ccc(CN2CCN(C3CCN(C(=O)c4ccc(C)cc4)CC3)C(=O)C2=O)cc1
  -1%	-4%
O=C(NCCNC(=O)c1ccc(F)cc1)c1ccc(F)cc1
  2%	0%
Nc1nc(=S)[nH]c2n[nH]nc12
  -19%	-18%
CCN=C1SC(C(=O)Nc2cccc(Br)c2)CC(=O)N1CC (stereo not given)
  i	-16%
Cc1ccccc1-n1c(SCC(=O)N(C)C2CCS(=O)(=O)C2)nnc1-c1ccncc1 (stereo not given)
  -11%	-9%
CCCCn1nc(C(=O)Nc2ccc(S(=O)(=O)Nc3ncccn3)cc2)c2ccccc2c1=O
  i	-2%
Cc1cc(N2CCC(C(=O)Nc3ccc(F)cc3C)CC2)n2nc(C)c(-c3ccc(Cl)cc3)c2n1
  4%	3%
COc1ccc(CNC(=O)C2CCC(=O)N(CCCN3CCCC3=O)C2)cc1 (stereo not given)
  i	-13%
Cc1c(/C=C/C(=O)c2ccccc2O)cnn1C
  -11%	-7%

Order of values – VACV mCherry inh	VACV Venus inh
C[C@H]1CN=C(Nc2ccccc2)N1CCC1CCCCC1
  -5%	-19%
O=S(=O)(Nc1nc2ccccc2s1)c1cnc(Cl)c(Br)c1
  -5%	-3%
CN(C)CCCn1c(N)c(S(=O)(=O)c2ccccc2)c2nc3ccccc3nc21
  -20%[7.34 µM]	-4%[7.34 µM]
Cc1cccc(N2C(=O)SC(N(C)c3ccccc3)C2=O)c1 (stereo not given)
  nt	-2%
O=C(Nc1ccccc1)Nc1ccc2snnc2c1
  -2%	-19%
COc1ccc(C(=O)Nc2ccc3nc(SCC(=O)N4CCCc5ccccc54)sc3c2)cc1
  ?	-27%
NC1=NC(=O)/C(=C/C=C/c2cccs2)S1
  ?	?
CN(C)c1ccc(/C=C/c2ccnc3ccc(Br)cc23)cc1
  ?	11%
CCc1c(C)sc(NC(=O)c2cccs2)c1C(N)=O
  -21%	-27%
c1ccc(CN2CCN(Cc3nnc(-c4ccccc4)o3)CC2)cc1
  4%	-5%
CCn1c(CCc2ccccc2)nc2ccccc21
  27%	2%
CCN(CC)c1ccc(/C=c2/sc3nnc(-c4ccccc4C)n3c2=O)cc1
  -15%	-8%
Cc1ccc(S(=O)(=O)Nc2ccccc2)cc1C(=O)N1CCCC1
  i	-13%
Cc1cccc(CN2CCSCC2)c1
  -1%	-6%
CCN1CCc2c(C#N)c(N3CCCCC3)nc(N3CCOCC3)c2C1
  i	-15%

Order of values – VACV mCherry inh	VACV Venus inh
C=CCc1cccc(OC)c1OCCOCCn1ccnc1
  -16%	-8%
O=C(Nc1nc(OCCN2CCCC2=O)cnc1/C=C\c1ccccc1)c1cc2ccccc2s1
  -30%	-26%
Cc1ccccc1C(=O)OC1CCN(C)CC1
  -8%	-5%
CC(=O)NC1C(=O)N=C(SCC(=O)NC2CCCCC2)NC1=O (stereo not given)
  -14%	-2%
Cc1cc(C(=O)N2CCCC(C)(C(=O)NS(=O)(=O)C3CC3)C2)n(C(C)(C)C)n1 (stereo not given)
  36%[activator]	10%
COc1cccc(NC(=O)c2sc(-n3nc(C)c(Cc4ccccc4Cl)c3C)nc2C)c1
  -1%	-13%
Cc1c(Cl)cccc1NC(=O)CCNC(=O)N1CC(=O)Nc2ccccc21
  i	-12%
CCOc1ccc2nc(NC(=O)c3cnc(C)cn3)sc2c1
  nt	-15%
c1ccc2c(c1)-c1ccccc1C2N1CCOCC1
  -10%	1%
Cc1cccc(OCC(=O)NC(=S)NNC(=O)c2ccncc2)c1
  -13%	0%
Cc1ccc(CN2CCc3nnc(C(NS(C)(=O)=O)C(C)C)n3CC2)cc1C (stereo not given)
  -24%	-15%
